# High-throughput results: PubChem, Fisher Drug Discovery Resource Center
# NPYLR7 agonist: agonists of mosquito NPYLR7 receptor, primary screen, cell-based, Aedes aegypti, calcium fluorescence, mosquito biting behavior | Aedes aegypti neuropeptide Y-like receptor 7 (NPYLR7) | HEK293T NPYLR7/Galpha15, GCaMP6s calcium fluorescence | activation, % at 10 µM | 270,000 tested, 0.15% active; in the data active = activation above about 40%;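 also: 0% = vehicle and 100% = reference agonist at the receptor; some compounds past the cut are filed as inactive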
# NPYLR7 agonist max-min: recorded beside NPYLR7 agonist, whose call it bears; activation, %; measured here: Max-Min RFU normalised activation; some inactives read as strong as hits;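 span of the calcium signal over five minutes; 0% = vehicle and 100% = native peptide agonist; compound fluorescence can raise it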
# The depositor's hits bear a star; & = joins results of further samples. Not all compounds are listed (hit frequency here may not be typical).
Molecule,NPYLR7 agonist,NPYLR7 agonist max-min
COCC(=O)N1CCN(c2ccc(Br)cc2)C(=O)C1C (stereo not given),1,2
CCc1cn[nH]c1C1CCN(Cc2ccccc2OCCO)CC1,11,9
CCn1cc(C(=O)NCc2cccnc2-n2cnc3ccccc32)cn1,23,10
CC(NC(=O)Cn1nc(-c2ccco2)oc1=O)c1ccccc1 (stereo not given),5,2
COc1cccc(C(=O)NC2CC(=O)N(CCc3cccc(Cl)c3)C2)c1C (stereo not given),6,7
CCn1cc(C(CC(=O)NCCCOC)c2cccc(Cl)c2)c2ccccc21 (stereo not given),-2,6
CCc1cc(C(=O)N2CCCC(c3[nH]ncc3-c3ccc(C)cc3)C2)no1 (stereo not given),5,1
CCOC(=O)C1=C(Cn2cc(C(F)(F)F)ccc2=O)NC(=O)NC1C (stereo not given),0,7
CC(=O)N1CCC(NC(=O)CN(CC2CC2)C(C)c2ccccc2)CC1 (stereo not given),-7,-8
Cc1c(Cl)cccc1NC(=O)C(=O)NCc1ccccn1,8,4
Cc1ccccc1-c1nc(Cn2ccnc2-c2ccccn2)c(C)o1,9,2
O=C1/C(=C/c2ccc(Br)cc2)C=C(c2ccccc2)N1c1cccc2ccccc12,-2,2
CN(CC(=O)N1CCN2C(=O)CNC(=O)C2C1)C1CCCC1 (stereo not given),3,1
CC(C)(NC(=O)c1cccs1)C(=O)NC1CCN(Cc2ccccc2)C1 (stereo not given),13,3
N#Cc1ccc(CS(=O)(=O)NC(=O)CC2CC3CCC2C3)cc1 (stereo not given),3,-2
Cc1ccc(S(=O)(=O)N2CCN(c3cc(Oc4cc(C)ccc4F)ncn3)CC2C)cc1 (stereo not given),0,7
Cn1nc(C2CCN(C(=O)c3cnon3)CC2)n(-c2ccccc2)c1=O,28,17
COc1cc(OC)cc(C(=O)N2CCN(C(=O)CCCSc3nnc(-c4ccccc4)n3-c3ccccc3C)CC2C)c1 (stereo not given),5,5
Cc1ccc(Cc2nsc(N(CCC(=O)N3CCN(c4cccc(C(F)(F)F)c4)CC3)Cc3ccco3)n2)cc1,16,19
CCC(C)N(Cc1ccccc1F)C(=O)c1ccc[nH]c1=O (stereo not given),17,15
CCc1cccc(NC(=O)N(CC(=O)N(CCc2c[nH]c3ccccc23)Cc2ccc(C(F)(F)F)cc2)C2CC2)c1,-6,-5
CCCc1[nH]n(-c2ccc([N+](=O)[O-])cc2)c(=O)c1/C=N\N1CCN(C)CC1,-3,-14
COCCN(Cc1nccn1Cc1ccccc1Cl)C(=O)CC(C)C,6,16
N#Cc1ccc([N+](=O)[O-])c(O)c1,-7,-1
C=CCn1cnc2c(nnn2-c2cc(C)cc(C)c2)c1=O,-4,-8
COc1ccc(C(=O)CSc2nc(=O)n3ccccc3n2)cc1,14,9
CC1(C(=O)Nc2cccc3cccnc23)CCN1C(=O)CC1CC1 (stereo not given),3,0
Cc1cc(C)n(-c2cc(NCCNC(=O)c3cccs3)ncn2)n1,-7,-11
CC(C)NC(=O)CN1Cc2ccc(N3CCOCC3)nc2C1=O,14,12
CCOc1ccc(-c2ccc(OCCNC(=O)COc3ccccc3)nn2)cc1,0,-1
Cc1cc(CN2CCCC(CNC(=O)c3cccs3)C2)n[nH]1 (stereo not given),-6,-9
O=C(Cc1ccc(-c2ccccc2)cc1)N1CC[C@H](CO)[C@H](O)C1,4,-3
CCc1nc2c(OCc3ccc(OC)cc3)cccn2c1N(C)C(=O)c1ccncc1,-5,-8
OCC1(Cc2ccccc2Cl)CCN(Cc2cccn2-c2cccnc2)CC1,5,4
CCN(CC)C(=O)Oc1ccc2c(ccn2Cc2ccc(Br)cc2)c1-c1cc(C)cc(C)c1,25,9
COC(=O)C1=C(C)NC2=C(C(=O)CC(c3ccccc3Cl)C2)C1c1cccc([N+](=O)[O-])c1 (stereo not given),-2,-7
OCC(CO)Nc1cccc(C(F)(F)F)n1,18,10
CC(C)OC(=O)CSc1n[nH]c(=O)[nH]c1=O,-1,-3
COc1ccc(-n2c(SCc3ccc(C(=O)O)cc3)nnc2-c2ccccc2Cl)cc1,-4,-10
CCOc1ccc(-n2c(C(C)N(Cc3ccccc3)C(=O)Nc3ccc(F)cc3F)nc3ccccc3c2=O)cc1 (stereo not given),26,24
CSc1nc2c(c(=O)n1-c1ccc(C)cc1)SCC2,-1,-3
C=CCSc1nc2c(cc1C#N)CCC2,4,4
COc1cccc(C(=O)NCc2ccccc2F)c1O,0,-2
CCCC(O)(CCC)c1ccc(CN(Cc2ccc(OC)cc2)C2CC2)o1,-14,-9
CC(=O)c1cccc(CN2CCCC(CO)(Cc3cccc(Cl)c3)C2)c1 (stereo not given),3&10,0&9

# Profiles, looked up by structure. Values in the order: NPYLR7 agonist | NPYLR7 agonist max-min
# `CSc1nc2c(c(=O)n1-c1ccc(C)cc1)SCC2` in the list: -1 | -3
# `CCc1nc2c(OCc3ccc(OC)cc3)cccn2c1N(C)C(=O)c1ccncc1` in the list: -5 | -8
# `CC(C)OC(=O)CSc1n[nH]c(=O)[nH]c1=O` in the list: -1 | -3

# (next part)
Molecule,NPYLR7 agonist,NPYLR7 agonist max-min
CCCn1cc2cnc(C(=O)N(C)CC(C)C)cc2c1,1,1
Cc1nc(CNC(=O)c2cc(Cn3ccnc3C(C)C)[nH]n2)sc1C,0,-4
O=S(=O)(c1ccc(Cl)cc1)C(F)(F)F,-7,-12
c1ccc(Nc2ccc(-n3cnnc3)cn2)cc1,7,5
CCC1CN(Cc2cccc(OC)c2)Cc2cc(OC)ccc2O1 (stereo not given),24,12
COc1ccc(C2C(C(=O)O)CCC(=O)N2c2ccc(C)cc2)cc1 (stereo not given),9,4
CNC(=O)c1nn(-c2cccc(C(F)(F)F)c2)c(C)cc1=O,4,3
O=C(CCOc1ccccc1)Nc1ccnn1C1CCN(C2CCOCC2)CC1,3,6
O=C(Nc1c(-c2ccc(F)c(F)c2)nc2ccccn12)C1CCCC1,-10,-7
O=C(Nc1ccccn1)C1CCN(Cc2cccc3c2OCCO3)CC1,-22,-26
CCOC(=O)CN1C(=O)CN(C(=O)c2cccc(C#N)c2)CCC(OC)c2ccccc21 (stereo not given),2,3
COc1ccc(-n2cc(C)cn2)c(C(=O)O)c1,-1,-4
Cc1ccc(Cc2nc(N3CCCN(C(=O)COc4ccc(Cl)cc4)CC3)c3cnn(-c4ccccc4)c3n2)cc1,-2,4
CNC(=O)CN(C)C(=O)CCc1nc(C(C)(C)C)no1,11,9
COc1cc(-c2cc(Cl)ccc2NC(C)=O)cc(OC)c1OC,1,-1

# Continued (3 carried over from the part before).
Molecule,NPYLR7 agonist,NPYLR7 agonist max-min
Cc1ccc(Cc2nc(N3CCCN(C(=O)COc4ccc(Cl)cc4)CC3)c3cnn(-c4ccccc4)c3n2)cc1,-2,4
CNC(=O)CN(C)C(=O)CCc1nc(C(C)(C)C)no1,11,9
COc1cc(-c2cc(Cl)ccc2NC(C)=O)cc(OC)c1OC,1,-1
CCOC(=O)N1CCN(C(=O)c2ccc3oc(CCCc4ccccc4)nc3c2)CC1,12,3
CCC(C)C(=O)Nc1c(C)cc(C)cc1C (stereo not given),7,6
CC(C)c1ccc(/C=N\Nc2nncn2N)cc1,-6,-12
O=C(Nc1cccc(Cl)c1Cl)NC1CCC(C(F)(F)F)CC1 (stereo not given),0,4
Cc1cccc(-c2noc(N3CCOCC3)c2CNCc2ccco2)c1,0,2
Cn1c(SCC(=O)c2ccc[nH]2)nc2sc3c(c2c1=O)CCCC3,-3,-6
COc1cc(C(=O)N2CCN(Cc3ccc(-c4noc(-c5cccc(C(F)(F)F)c5)n4)cc3)CC2)ccc1F,28,19
CCC(=O)N(CCOC)Cc1cc(NC(=O)CC(C)C)ccc1N(C)C,23,22
CC12CN3CC(C)(CN(C1)C3c1cccc(N)c1)C2=O (stereo not given),6,6
O=c1[nH]c(Sc2cc(Cl)c3nsnc3c2[N+](=O)[O-])nc2ccccc12,-1,-3
O=C(NCc1ccccc1)c1cc(NC(=O)C(Cl)c2ccccc2)ccc1N1CCCCC1 (stereo not given),19,16
Cn1c(NC2CCN(Cc3ccccc3)C2)c(C#N)c(=O)n(C)c1=O (stereo not given),7,5
C=CCN(CC(=O)N(Cc1ccc(F)cc1)Cc1ccc(C)s1)C(=O)NCC,-8,-20
COc1ccc(-c2nc3ccc(C)cn3c2NC(C)(C)CC(C)(C)C)cc1OC,6,9
CCCN(C)c1cc(-c2ccccc2)nc(SCc2cccc(C(=O)N3CCCC3)c2)n1,13,3
COC(=O)N1CC[C@@]2(C1)[C@H](O)CN(c1ccccc1)S2(=O)=O,0,1
Clc1cnc(-c2cccc3cnccc23)nc1,7,5
CCOCCCNC(=O)c1cc(NC(=O)c2ccc(F)cc2)ccc1N1CCN(c2ccccc2OC)CC1,0,11
CCOc1cc(C)c(C(C)C)cc1S(=O)(=O)NC1CC(C)(C)NC(C)(C)C1,0,0
Cc1ccnn1-c1nc(-c2ccco2)cc(C(F)(F)F)n1,12,5
O=C1OCc2cc(NS(=O)(=O)c3cccs3)ccc21,1,-2
O=C(c1nn2c(C(F)(F)F)cc(-c3ccc(Br)cc3)nc2c1Cl)N1CCCCCC1,5,8
Cn1ccnc1-c1nccn1CC1CCS(=O)(=O)C1 (stereo not given),-3,-1
CN(C(=O)c1cccc(NC(N)=O)c1)c1ccc(C(C)(C)C)cc1,7,2
Cc1nnsc1CN(C)C(=O)c1ccc(C2CCCN2)s1 (stereo not given),0,-8
FC(F)(F)c1ccc(Nc2ncnc3[nH]ncc23)cc1,2,2
CC(C)n1cc(CN2CCC3(CC2)CN(C)CCN3C)c2ccccc21,-2,-9
C#CCn1c(=NC(=O)c2cc(C)no2)sc2cc(S(C)(=O)=O)ccc21,2,5
c1ccc(C2=NN(c3ccccc3)C(c3ccc(-c4ccccc4)cc3)C2)cc1 (stereo not given),-8,-13
Brc1ccc(C2CN(CCC3OCCCO3)CCO2)cc1 (stereo not given),-4,1
Cc1ccc(NC(=O)c2nnn(Cc3ccccc3)c2N)cc1C,-1,5
CC(=O)Nc1nnc(-c2ccccc2SCc2ccccc2)s1,2,6
COc1ccc(F)cc1S(=O)(=O)n1nnc2ccccc21,-1,7
CN(C)c1ccc(C(=O)N2CCC(C(=O)NCC#N)(c3ccccc3)CC2)c2ccccc12,20,11
O=C(COc1cccnc1)NC1(CN2CCCC2)CCCCC1,-1,-1
CCOc1ccccc1NC(=O)Nc1ccc(Nc2cc(OC)nc(C)n2)cc1,12,3
CCCCCCc1cc2cc(-c3nnc(-c4cccc(Cl)c4)o3)c(=O)oc2cc1O,3,-1
CC(C)c1ccc(C(=O)N2CCOC(Cc3ccccc3Cl)C2)c(=O)n1C (stereo not given),-6,-13
COc1cccc(-c2nnc(SCc3ccc(C(=O)Nc4ccc5c(c4)OCO5)cc3)n2-c2ccccc2OC)c1,10,27
Cc1ccc(-n2cc(CN(C)CCc3cnn(C)c3)c(-c3cccc(C)c3)n2)cc1,4,-12
Cc1cccc(Cn2cnc3c(cnn3CCNC(=O)c3cccs3)c2=O)c1,-4,-10
C=CCNc1nc2c(c(=O)[nH]c(=O)n2C)n1Cc1cccc(C)c1,-7,2
Cc1cccc(-n2nc(-c3ccc(F)cc3)cc2C(=O)O)c1,16,27
Cc1nc(-c2ccccc2)nc(C(=O)O)c1C(=O)OCc1ccccc1,15,5
COc1ccc(CNC(=O)c2cn(Cc3cc(Cl)ccc3OC)c(=O)s2)cc1,14,4
Nc1cc(-c2ccc(Cl)cc2)nn1-c1ccc(C(=O)NCCC(c2ccccc2)c2ccccc2)cc1,1,-4
Nc1ccc2ncnc(NCCc3ccc(Oc4ccccc4)cc3)c2c1,-1,-4
CCCCNC(=O)c1cc([N+](=O)[O-])ccc1NC,6,2
c1ccc(Cn2cnc3c(Nc4ccccc4)nccc32)cc1,-4,-3
Cc1cc(C)nc(Nc2n[nH]c(COc3ccc4ccccc4c3)n2)n1,1,0
O=C(CC1CSc2nccc(=O)n21)Nc1ccccc1Cl (stereo not given),2,1
c1ccc(CCNc2nc(Nc3ccccc3)c3nccnc3n2)cc1,4,6
CCS(=O)(=O)Oc1cc(CN(CCN(C)C)C(=O)NC(C)C)ccc1OC,3,13
CCc1nc2n(n1)C(=O)C(C(c1ccc([N+](=O)[O-])cc1)N1CCC(C(=O)OC)CC1)S2 (stereo not given),0,17
COc1ccc2oc(CNC(=O)CCN3CCCCCCC3)nc2c1,14,12
Cc1nc2ccc(Cl)cn2c(=O)c1NC(=O)c1ccccc1F,4,1
CCn1cc(CN2CCC(C(=O)Nc3cccc(-c4cccc(F)c4)c3)CC2)cn1,0,-2
CN(Cc1cc(=O)n(C)c(=O)n1C)C1CCc2ccccc21 (stereo not given),6,2
Cc1noc(C)c1CC(=O)N1CCc2[nH]nc(-c3ccc(Cl)cc3)c2C1,5,3
COc1ccc(/C=C2\SC(=S)N(c3cccc(F)c3)C2=O)c(OC)c1,-1,5
CC(C)=CCCC1=CC(=O)OC1O (stereo not given),-6,-11
Cc1ccc(Cl)cc1-n1c(SCc2nc(C(=O)NCCN3CCOCC3)cs2)nnc1-c1ccncc1,-2,9
O=C(CSc1ccc(C(F)(F)F)cn1)NCCNc1ccc([N+](=O)[O-])cn1,-8,-13
